Screens from PubChem BioAssay.
D2 potentiator: human D2 receptor positive allosteric modulation; P14416; 360,000 compounds, 0.23% hits; potentiation, % (no concentration beside the values); DiscoveRx D2 beta-arrestin cells, luminescence, 90 min; 100% = 57 uM dopamine signal; active = potentiation of 50% or more; inconclusive = 30% to 50%; inactive = 30% or less;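 note: compound concentration not given in the record; tested on top of an EC20 dose of dopamine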
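D2 cells co-treated with compound plus 50 nM dopamine (EC20) for 90 min at 37 deg C to detect potentiation. Beta-arrestin recruitment was read as enzyme-fragment luminescence after 1 h at ambient temperature. Full response was set by 57 uM dopamine.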
Six1-Eya2 blk: Six1/Eya2 interaction inhibition | AlphaScreen GST-Six1/His-Eya2 binding, biochemical; hits give low values; control for the full effect not named in the record | 360,000 compounds, 0.56% hits | AID 651725 | Q15475+O00167 | activity change, % (test concentration not listed); in the data active = activity change below about -65%; inconclusive = about -30% to -65%; inactive = above about -30%; note: % is set by controls: 0 for no effect and ±100 for the full control effect
Target sequence (O00167 whole entry, looked up): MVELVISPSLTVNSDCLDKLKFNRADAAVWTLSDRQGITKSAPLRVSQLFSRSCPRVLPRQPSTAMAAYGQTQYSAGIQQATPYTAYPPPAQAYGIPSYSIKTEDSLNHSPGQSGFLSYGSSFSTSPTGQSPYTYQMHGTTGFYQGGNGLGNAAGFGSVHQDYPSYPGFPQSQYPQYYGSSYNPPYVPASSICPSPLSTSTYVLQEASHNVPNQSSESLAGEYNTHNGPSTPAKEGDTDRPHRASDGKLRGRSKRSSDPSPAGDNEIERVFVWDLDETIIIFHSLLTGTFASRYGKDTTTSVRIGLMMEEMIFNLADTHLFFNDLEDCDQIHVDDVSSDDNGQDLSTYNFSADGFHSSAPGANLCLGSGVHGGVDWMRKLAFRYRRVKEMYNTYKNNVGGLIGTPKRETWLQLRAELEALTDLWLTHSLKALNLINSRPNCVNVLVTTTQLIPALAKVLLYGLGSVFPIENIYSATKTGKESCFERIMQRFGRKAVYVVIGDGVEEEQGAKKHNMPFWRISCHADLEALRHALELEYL
Target sequence (Q15475 whole entry, looked up): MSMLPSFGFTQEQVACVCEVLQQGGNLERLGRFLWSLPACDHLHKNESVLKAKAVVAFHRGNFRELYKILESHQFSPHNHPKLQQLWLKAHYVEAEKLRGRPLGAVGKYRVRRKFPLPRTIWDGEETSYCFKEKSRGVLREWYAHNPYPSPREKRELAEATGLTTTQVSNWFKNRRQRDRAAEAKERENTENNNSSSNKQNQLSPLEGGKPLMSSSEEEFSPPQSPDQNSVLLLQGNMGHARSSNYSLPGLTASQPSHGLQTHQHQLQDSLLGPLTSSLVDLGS
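GST-Six1 + His-Eya2 (5X stock: 250/500 nM); Tris pH 8.0, 300 mM NaCl, 0.05% BSA, 0.02% Tween 20; GSH donor/Ni acceptor beads; 1 h 37 °C dark; AlphaScreen readout.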
TRPML1 blocker: inhibitors of human TRPML1 channel. Q9GZU1. TRPML1-inducible cells, Ca2+ dye fluorescence, FDSS; hits give low values; inhibition of EC80 agonist-evoked calcium signal. activity change, negative = inhibition, % (concentration not given with the values). 390,000 compounds, 0.02% hits. AID 624415; in the data active means activity change below about -50%; inconclusive means about -30% to -50%; inactive means above about -30%;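 note: stimulus is agonist 54-4 at its EC80 concentration; % is set by controls: 0 for no effect and ±100 for the full control effect; the text of the record puts the active cut at -80%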
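TRPML1-DL cells, Tet-induced overnight (~16 h, 37 °C) at 1,500 cells/well, were loaded with Ca8 no-wash dye plus quencher for 45-90 min at room temperature. Compounds were pinned during FDSS kinetic reading; agonist 54-4 at EC80 (4 uM final) then added.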
D2 agonist: human D2 receptor agonism in beta-arrestin assay | DiscoveRx PathHunter D2 beta-arrestin, luminescence, 90 min; 100% = 57 uM dopamine signal | P14416 | 360,000 compounds, 0.084% hits | activation, % (test concentration not listed); in the data active = activation above about 40%; inconclusive = about 15% to 40%; inactive = below about 15%; note: compound concentration not given in the record; the text of the record calls up to 30% inactive
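DiscoveRx PathHunter D2 beta-arrestin cells (2,100/well) attached overnight, then compound-stimulated 90 min at 37 C in HBSS/10 mM HEPES/0.1% Tween-20 buffer; beta-galactosidase complementation read by luminescence after 1 h at ambient temperature. Dopamine 57 uM final (EC100) as control.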
PINK1 modulator: PINK1 expression modulation; PINK1 immunofluorescence, high-content cytometry, 24 h; Potency, µM (highest dose often 76.6 µM), for the others: top-dose activation (PINK1 increase), usual class: activators; 410,000 compounds, 0.2% hits; active = well fitted activation curve with a large enough effect; inconclusive = small, poorly fitted or top-dose-only effect; inactive = flat fitted curve, though single readings scatter; cell line not stated here;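 note: potency is the fitted concentration of half-maximal effect; % of control where 0% means no effect; nearly all actives have a fitted effect of over 65% in size; a mitochondrial uncoupler was the plate control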
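Fluorescence from anti-PINK1 antibody, together with nuclear and cell stains, was scanned on a laser-scanning cytometer. Before staining, stable-line cells were incubated 24 hours with compounds at 5 concentrations; primary antibody 12 h at 10 degrees C.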
TRPML1 agonist: agonists of human TRPML1 channel; Q9GZU1; TRPML1-expressing cells, Ca2+ dye fluorescence, FDSS; host cell line not named in the record; reference of the full effect not given here; activation, % (concentration not given with the values); 410,000 compounds, 0.12% hits; AID 624414; in the data active = activation above about 50%; inconclusive = about 30% to 50%; inactive = below about 30%; note: 0% is about no effect; the text of the record puts the active cut at 80%
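Cells: TRPML1-DL, 1X Tet inducer, ~16 h at 37 degrees C/5% CO2. Dye: ABD Ca8 no-wash + quencher, 45-90 min RT. Read: 10 s baseline, compound add, 110 s agonist phase; 54-4 EC80 (4uM final), 110 s antagonist phase.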
* marks the source's active call; other numbers are inactive results; ? = inconclusive; . = no result given; & = joins results of further samples; [ ] = dose if it differs, or a comment.

SMILES	D2 potentiator	Six1-Eya2 blk	TRPML1 blocker	D2 agonist	PINK1 modulator	TRPML1 agonist
CCOc1ccccc1N1CCN(C(=O)c2ccc3nc(N)sc3c2)CC1	-22.8	9.2	34.4	4.7	-0.5%	3.1
CCOC(=O)N1CCN(C(=O)CSc2ncnc3ccccc23)CC1	-2.8	1.6	10.3	-2.4	-0.9%	-0.1
CCCCOc1ccccc1NC(=O)C=C(C)C	-14.1	6.0	-12.7	-1.9	-1.2%[38.3 µM]	-0.1
CC(C)(C)[C@H]1COC(=O)CC/C=C\C[C@@H](CC(=O)N[C@H](CO)Cc2ccccc2)C(=O)N1	-1.8	1.4	2.6	-1.4	-0.6%	-0.3
O=C(Nc1cccs1)NC1CCCC1	-0.3	-1.4	-4.3	-1.0	0.8%	-0.8
Cc1nc(SC2CC(=O)N(c3ccccc3)C2=O)n[nH]1 (stereo unspecified)	-13.9	8.2	33.2	-3.3	2.7%	1.9
COC(=O)C1=C(C)C(c2ccc(OC)cc2)NC(=O)N1 (stereo unspecified)	-5.0	10.7	-10.0	-4.8	2.2%	0.7
Cc1c(Cl)cccc1NC(=O)CN1C(=O)CSc2ccc(S(=O)(=O)N3CCCC3)cc21	.	.	-10.9	.	-0.9%	3.3
COc1ccc(NC(=O)c2nn(C34CC5CC(CC(C5)C3)C4)cc2[N+](=O)[O-])cc1	-12.3	0.8	-6.9	-4.7	1.8%	-1.1
Fc1ccc(CN2CCN(c3ncccn3)CC2)cc1	24.8	4.5	-12.0	46.7*	.	-0.4
O=C(NCC(c1ccc2c(c1)OCO2)N1CCN(c2ccccc2)CC1)C(=O)Nc1ccccc1F (stereo unspecified)	.	.	24.9	.	-0.7%	0.4
O=C(O)C1CCCN1C(=O)c1cncc(Br)c1 (stereo unspecified)	-10.1	0.7	-4.7	-2.8	26.5%[38.3 µM]	-0.1
CC(C)CCNS(=O)(=O)c1ccc(N2CCCCS2(=O)=O)cc1	.	.	17.5	.	2.2%	0.4
COc1ccc(/C=N/NC(=O)c2ccncc2)c(C(=O)O)c1OC	-0.6	12.2	6.6	-2.6	2.6%	-0.4
O=C(CN1CCN(c2ccc(C(F)(F)F)cn2)CC1)NCc1ccc2c(c1)OCO2	-3.1	-0.5	16.6	2.2	1.6%	-0.2
COC(=O)c1cn[nH]c1NC(=S)Nc1ccccc1C	15.7	-9.9	21.6	6.7	18.3%[38.3 µM]	1.8
NC(=O)CSCc1c(Cl)cccc1Cl	-11.8	3.2	-7.6	-3.1	-5.8%[38.3 µM]	0.7
COc1cccc(CN2CC(C(=O)NCc3cccc(Cl)c3)CCC2=O)c1 (stereo unspecified)	0.3	-2.1	34.9	4.4	0.2%	-1.1
Cc1ccc(-n2nc3c(=O)n(CCCC(=O)NCc4ccc(F)cc4)nc(C)c3c2C)cc1	-10.0	-16.4	?	-4.8	0.4%&-0.2%	1.6&3.2
Cc1cc(=O)[nH]c(SCCCOc2ccccc2Cl)n1	-1.8	-0.6	-4.6	-3.1	-2.6%[38.3 µM]	2.2
CC(C)[C@H](NC(=O)c1ccccc1Cl)C(=O)Nc1ccc(S(=O)(=O)Nc2nccs2)cc1	-4.1	-2.0	0.4	-2.8	7.3%	0.2
O=C(CNC(=O)c1ccccc1)OCc1nnc(-c2ccc(Cl)cc2)o1	-13.3	2.6	1.4	-0.7	1.6%	0.2
COc1ccc(NC(=O)Cc2cccs2)cc1S(=O)(=O)N1CCCCC1	-20.6	-1.1	-6.8	0.0	0.3%	-0.6
COc1ccc(CC(=O)Nc2ccc(N3CCCC3)c(C)c2)cc1	-8.8	3.9	20.6	-4.8	-1.4%	1.3
O=C(Cn1cc(C(F)(F)F)cc(Cl)c1=O)NCCc1ccccc1	-2.9	3.0	-6.0	-9.4	-0.3%	-1.0
CCCNC(=O)C(=O)N/N=C/c1ccc(OCc2ccccc2)cc1	-5.4	-3.3	6.1	1.3	-2.2%	4.7
O=C(Oc1ccccc1)c1ccccc1C(=O)Oc1ccccc1	-32.7	29.2	.	-2.6	1.8%	.
CCN(C(=O)c1ccccc1F)c1nc(-c2ccc(OC)cc2)cs1	-10.8	-0.3	39.4	-5.2	0.3%	0.9
Cc1cc(N2CCOCC2)c2c(N)c(C)cc(C)c2n1	-2.5	-0.7	-14.8	-2.4	-0.9%	-0.3
O=S(=O)(c1ccc(-c2csc(-c3cccnc3)n2)cc1)N1CCOCC1	-6.9	-23.4	6.8	4.5	1.0%	2.6
C=CCOC(=O)C1=C(C)NC(SCC(N)=O)=C(C#N)C1c1cccs1 (stereo unspecified)	-26.4	10.0	9.0	-2.7	2.4%	1.4
O=C(NCc1ccco1)c1cccc(-c2cncc3nccn23)c1	3.8	-1.3	.	5.4	1.0%	-0.7
O=C(c1cc2c(=O)n3ccccc3nc2s1)N1CCN(Cc2ccccc2)CC1	-6.3	-7.9	24.5	-0.8	0.4%	-0.5
O=C(Nc1ccccc1Br)C1CCCN1S(=O)(=O)c1cccc2nsnc12 (stereo unspecified)	-7.0	-2.6	2.4	-3.3	1.5%	-1.0
CCCCCn1c(=O)[nH]c2cc(C(=O)NCc3ccc4c(c3)OCO4)ccc2c1=O	-17.3	-3.5	56.3	-3.1	13.4%	-0.3
Nc1c(C(=O)CSc2n[nH]c(-c3ccccc3Br)n2)c(=O)[nH]c(=O)n1C1CC1	-6.8	-3.9	5.4	-4.2	-0.4%	-0.5
O=C(C[C@@H]1C/C=C\C[C@H](Cc2ccc(F)cc2)C(=O)OC[C@@H](c2ccccc2)NC1=O)NCCO	-5.6	15.0	-19.1	-0.7	1.2%	0.4
CN(C)C(=O)N1CCN(C(=O)c2ccccc2Sc2ccccc2C#N)CC1	-9.1	4.8	-19.0	-1.1	2.2%[38.3 µM]	-0.3
C=CCn1c(SCC(=O)Nc2nc(C)cs2)nnc1C(C)NC(=O)c1ccccc1Cl (stereo unspecified)	4.7	0.6	-2.5	-0.2	1.2%	1.3
CCN1C(=O)/C(=C/C=C2\N(CC)c3cc(S(=O)(=O)N(C)C)ccc3N2c2ccccc2)SC1=S	-1.1	-8.8	.	-3.9	2.9%	.
CC(O)CNc1ccc(-c2nn(C)c(=O)c3ccccc23)cc1[N+](=O)[O-] (stereo unspecified)	-0.9	16.7	0.4	-8.0	0.2%	-0.1
CCN(CC)S(=O)(=O)c1cccc(S(=O)(=O)c2cccc(S(=O)(=O)N(CC)CC)c2)c1	-5.1	6.1	0.0	-1.0	-3.4%[38.3 µM]	7.4
Cc1ccc(NC(=O)/C=C/c2ccccc2)c(Br)c1	.	.	11.8	.	16.4%	0.9
Cc1ccc(NC(=O)c2ccn(C)n2)c(Br)c1	-8.8	-13.0	1.4	-2.3	4.9%	-0.7
CCC1=NN(C(=O)COc2ccccc2)C(O)(c2ccc(Br)cc2)C1 (stereo unspecified)	-2.3	-0.1	3.7	-3.0	7.5%	-0.4
Cc1ccc(C(=O)C2C(c3cccs3)NC(=O)NC2(O)C(F)(F)F)cc1 (stereo unspecified)	-1.0	-2.6	5.3	-4.4	-0.9%	-0.3
CC(Cl)C(=O)NNC(=O)CNS(=O)(=O)c1ccccc1 (stereo unspecified)	-8.4	3.4	-10.5	0.0	-1.7%	0.3
CCN(CC)C(=O)c1ccccc1NC(=O)c1cccc(S(=O)(=O)N2CCC(C)CC2)c1	.	.	2.9	.	0.9%	0.9
O=C(c1coc(=O)c(Br)c1)N1CCC(C(O)(c2ccccc2)c2ccccc2)CC1	-13.2	-1.5	15.1	-4.8	-0.6%	-0.2
O=C(NNC(=O)C1CC(=O)N(Cc2ccccc2)C1)c1ccc(F)cc1 (stereo unspecified)	-18.8	6.1	7.8	-6.0	2.9%	0.0

Looked up by structure from above:
SMILES	D2 potentiator	Six1-Eya2 blk	TRPML1 blocker	D2 agonist	PINK1 modulator	TRPML1 agonist
Cc1ccc(C(=O)C2C(c3cccs3)NC(=O)NC2(O)C(F)(F)F)cc1 (stereo unspecified)	-1.0	-2.6	5.3	-4.4	-0.9%	-0.3
O=C(c1coc(=O)c(Br)c1)N1CCC(C(O)(c2ccccc2)c2ccccc2)CC1	-13.2	-1.5	15.1	-4.8	-0.6%	-0.2
CCC1=NN(C(=O)COc2ccccc2)C(O)(c2ccc(Br)cc2)C1 (stereo unspecified)	-2.3	-0.1	3.7	-3.0	7.5%	-0.4

Further entries:
SMILES	D2 potentiator	Six1-Eya2 blk	TRPML1 blocker	D2 agonist	PINK1 modulator	TRPML1 agonist
CNc1c(NS(=O)(=O)c2ccc(CC(C)C)cc2)c(=O)oc2ccccc12	-0.2	-0.1	9.1	-1.5	-0.4%	1.3
CC(C)C[C@H](NC(=O)c1nc[nH]c1C(=O)NCC(=O)OC(C)(C)C)C(=O)OC(C)(C)C	0.9	2.3	-9.5	-2.2	11.3%	3.4
c1ccc(-c2nnc(N3CCOCC3)c3ccccc23)cc1	-1.4	-8.3	-4.4	-5.0	2.9%	-0.2
COc1ccccc1NC(=S)NCc1ccc(Cl)cc1	-8.8	-12.9	-4.8	3.1	0.2%	1.4
CCc1ccc2oc(-c3cccc(NC(=O)c4ccc(N5CCC(C)CC5)c([N+](=O)[O-])c4)c3)nc2c1	.	.	-3.0	.	0.7%	-0.1
CC(=O)Nc1ccc(NC(=O)C2(C)Cc3c(-c4ccc(NC(C)=O)cc4)ccnc3O2)cc1 (stereo unspecified)	0.9	-9.3	.	6.8	0.6%	-1.1
CCCN(CCC)CCNC(=O)Cn1cnc2sc(C)c(S(=O)(=O)N3CCN(c4ccccc4OC)CC3)c2c1=O	.	.	12.8	.	-1.2%	-0.4
O=C(CSc1cn[nH]n1)Nc1ccccc1C(=O)O	2.2	1.8	6.0	-0.9	1.3%	-0.5
Cc1oc2ncn(CC(C)C)c(=O)c2c1C(=O)NCCCN1CCC(C)CC1	.	.	-18.0	.	-0.8%	-0.2
O=C(NCc1ccncc1)[C@@H]1CCCN1C(=O)[C@H]1CCCN1C(=O)c1c(F)cccc1F	.	5.2	.	.	0.0%	-0.1
O=C(Nc1cc(Cl)cc(Cl)c1)C(NCC1CCCO1)c1ccccc1 (stereo unspecified)	-1.8	0.7	3.2	3.4	1.1%	4.0
NC(=O)C1=C[C@@H](C2CCCCC2)C[C@@H](OCc2ccc(CO)cc2)O1	-6.7	-6.5	4.0	0.1	-0.4%	0.1
O=C(CSc1nnc(CCc2nc3ccccc3[nH]2)n1-c1ccccc1)NCc1ccco1	-0.8	-4.9	-14.2	0.0	-0.2%	0.4
CCCCOc1c(Cl)cc(C(=O)N2CCN(CC(=O)N3CCCC3)CC2)cc1OCC	9.2	6.0	-8.6	-2.4	2.9%	0.5
CCN(CC)CCNC(=O)C(=O)NCC(c1cccnc1)N1CCN(c2ccccc2)CC1 (stereo unspecified)	.	.	-12.7	.	0.5%	1.6
COC(=O)c1ccc(OCCCCN(C)Cc2ccccc2)cc1	-4.3	-0.6	-0.5	-1.1	3.1%	0.8
CCc1nc2ccc(C(=O)Nc3cc(-c4ccccc4)ccc3OC)cn2c1N(C=O)CCC(C)C	-2.3	-5.7	.	133.9*	1.1%	-0.1
